TRPML1 inh = blocks the human TRPML1 channel | 390,000 compounds, 0.02% hits | activity change, negative = inhibition, % (test concentration not listed) | Q9GZU1 | TRPML1-inducible cells, Ca2+ dye fluorescence, FDSS; active compounds read low; inhibition of EC80 agonist-evoked calcium signal; in the data active means activity change below about -50%; inconclusive means about -30% to -50%; inactive means above about -30%;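 also: stimulus is agonist 54-4 at its EC80 concentration; % is scaled to controls: 0 for no effect and ±100 for the full control effect; compound concentration not given in the record; the text of the record puts the active cut at -80%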
Target sequence (Q9GZU1 whole entry, looked up): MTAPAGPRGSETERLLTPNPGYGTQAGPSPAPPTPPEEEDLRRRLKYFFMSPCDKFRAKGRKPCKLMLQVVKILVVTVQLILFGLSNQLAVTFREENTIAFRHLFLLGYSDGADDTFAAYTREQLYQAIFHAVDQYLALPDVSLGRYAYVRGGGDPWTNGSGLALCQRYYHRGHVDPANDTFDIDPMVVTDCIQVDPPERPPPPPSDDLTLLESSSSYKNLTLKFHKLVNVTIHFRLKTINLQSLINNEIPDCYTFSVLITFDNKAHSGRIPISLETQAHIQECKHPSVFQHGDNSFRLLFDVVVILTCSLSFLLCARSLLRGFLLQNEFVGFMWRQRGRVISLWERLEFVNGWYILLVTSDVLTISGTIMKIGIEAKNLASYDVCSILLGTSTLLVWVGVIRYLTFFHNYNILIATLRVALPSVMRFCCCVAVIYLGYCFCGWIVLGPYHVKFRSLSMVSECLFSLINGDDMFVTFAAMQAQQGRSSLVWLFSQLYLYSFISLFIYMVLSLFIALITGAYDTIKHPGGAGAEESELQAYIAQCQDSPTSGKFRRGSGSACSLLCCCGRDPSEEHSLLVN
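Calcium fluorescence in TRPML1-DL cells induced overnight with Tet: a 110 s read after compound pin addition, then a 110 s antagonist read after challenge with 54-4 at 4 uM final (EC80).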
TRPML1 ag = agonists of human TRPML1 channel; Q9GZU1; TRPML1-expressing cells, Ca2+ dye fluorescence, FDSS; host cell line not named in the record; reference of the full effect not given here; activation, % (concentration not given with the values); 410,000 compounds, 0.12% hits; AID 624414; in the data active = activation above about 50%; inconclusive = about 30% to 50%; inactive = below about 30%; also: 0% is about no effect; the text of the record puts the active cut at 80%
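TRPML1-DL cells, Tet-induced overnight (~16 h, 37 degrees C), loaded 45-90 min at room temperature with Ca8 no-wash calcium dye plus quencher. FDSS fluorescence: 10 s baseline, compound pin-transfer, 110 s agonist read, then EC80 54-4 (4uM final) and 110 s antagonist read.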
PINK1 expr mod = changes PINK1 expression; PINK1 immunofluorescence, high-content cytometry, 24 h; Potency, µM (highest dose often 76.6 µM), without a hit: at the top dose activation (PINK1 increase), most hits filed as activators; 410,000 compounds, 0.2% hits; AID 624263; active = well fitted activation curve with a large enough effect; inconclusive = small, poorly fitted or top-dose-only effect; inactive = flat fitted curve, though single readings scatter; cell line not stated here;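 also: potency is read from the fitted curve at half-maximal effect; % of control where 0% means no effect; nearly all actives have a fitted effect of over 65% in size; a mitochondrial uncoupler was the plate control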
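A stable cell line was treated with compounds at 5 concentrations for 24 hours, with CCCP as control. PINK1 levels and mitochondrial localization were measured by immunofluorescence with mitochondrial, cell and nuclear markers after fixation, read by laser-scanning cytometry.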
Six1-Eya2 blk = Six1/Eya2 interaction inhibition; AID 651725; 360,000 compounds, 0.56% hits; AlphaScreen GST-Six1/His-Eya2 binding, biochemical; active compounds read low; control for the full effect not named in the record; Q15475+O00167; activity change, % (concentration not given with the values); in the data active = activity change below about -65%; inconclusive = about -30% to -65%; inactive = above about -30%; also: % is scaled to controls: 0 for no effect and ±100 for the full control effect
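GST-Six1 + His-Eya2 (5X stock: 250/500 nM); Tris pH 8.0, 300 mM NaCl, 0.05% BSA, 0.02% Tween 20; GSH donor/Ni acceptor beads; 1 h 37 °C dark; AlphaScreen readout.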
D2 potentiator = human D2 receptor positive allosteric modulation | DiscoveRx D2 beta-arrestin cells, luminescence, 90 min; 100% = 57 uM dopamine signal | 360,000 compounds, 0.23% hits | P14416 | potentiation, % (concentration not given with the values); active = potentiation of 50% or more; inconclusive = 30% to 50%; inactive = 30% or less;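 also: tested on top of an EC20 dose of dopamine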
Target sequence (P14416 whole entry, looked up): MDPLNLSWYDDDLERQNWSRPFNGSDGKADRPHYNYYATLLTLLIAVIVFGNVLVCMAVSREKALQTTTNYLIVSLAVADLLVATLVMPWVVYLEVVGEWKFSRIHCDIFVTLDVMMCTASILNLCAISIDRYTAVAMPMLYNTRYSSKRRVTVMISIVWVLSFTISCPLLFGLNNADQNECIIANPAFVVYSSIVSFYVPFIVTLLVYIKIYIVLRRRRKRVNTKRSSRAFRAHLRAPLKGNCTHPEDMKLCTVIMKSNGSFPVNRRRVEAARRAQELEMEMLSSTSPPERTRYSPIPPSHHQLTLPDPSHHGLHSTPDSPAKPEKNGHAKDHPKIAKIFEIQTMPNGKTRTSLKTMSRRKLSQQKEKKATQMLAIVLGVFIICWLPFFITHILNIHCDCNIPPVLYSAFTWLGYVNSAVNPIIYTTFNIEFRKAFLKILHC
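D2 cells co-treated with compound plus 50 nM dopamine (EC20) for 90 min at 37 deg C to detect potentiation. Beta-arrestin recruitment was read as enzyme-fragment luminescence after 1 h at ambient temperature. Full response was set by 57 uM dopamine.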
D2 agonist = agonists of human D2 dopamine receptor (beta-arrestin) | P14416 | DiscoveRx PathHunter D2 beta-arrestin, luminescence, 90 min; 100% = 57 uM dopamine signal | activation, % (concentration not given with the values) | 360,000 compounds, 0.084% hits | AID 624465; in the data active = activation above about 40%; inconclusive = about 15% to 40%; inactive = below about 15%; also: the text of the record calls up to 30% inactive
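DiscoveRx PathHunter D2 beta-arrestin cells (2,100/well) attached overnight, then compound-stimulated 90 min at 37 C in HBSS/10 mM HEPES/0.1% Tween-20 buffer; beta-galactosidase complementation read by luminescence after 1 h at ambient temperature. Dopamine 57 uM final (EC100) as control.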
* hit, by the source's call; ? = inconclusive; . = no result given; [ ] = remark or other dose. Compounds as they come. Share with any hit: about 1%.

SMILES | TRPML1 inh | TRPML1 ag | PINK1 expr mod | Six1-Eya2 blk | D2 potentiator | D2 agonist
O=C(NCc1ccccc1Cl)C1CCC(=O)N(C2CCCC2)C1 (stereo not given) | -3 | -0.9 | 0.4% | 1 | 3 | 3.5
Cc1nn(Cc2ccccc2)c(Cl)c1C(=O)OCC(=O)NC(=O)NC12CC3CC(CC(C3)C1)C2 | 4 | -1.3 | 6.4% | 1 | -3 | -0.1
Cc1sc2nc(COC(=O)c3c(F)cccc3F)[nH]c(=O)c2c1C | 23 | 0.7 | -1.3% | 19 | -22 | -4.3
CCOc1cc2c(cc1/C=C/C(=O)O)OC(C)C2 (stereo not given) | -6 | -0.5 | 1.8% | 8 | -4 | 1.4
O=C(O)c1ccccc1C(=O)NC1CCCCNC1=O (stereo not given) | -8 | -0.7 | -0.3% | 4 | -2 | 1.7
CCn1cc(C(=O)N2CCN(c3cccc(Cl)c3)CC2)c(=O)c2cc(S(=O)(=O)N3CCCCC3)ccc21 | -11 | -0.6 | 2.8% | . | . | .
CCOc1ccc2nc(N3CCCC(C(=O)N4CCN(CC)CC4)C3)sc2c1 (stereo not given) | 0 | -0.7 | 1.0% | -7 | -6 | 1.5
O=C(CSc1ncn[nH]1)Nc1ccc(OCc2ccccc2)cc1 | 2 | 0.2 | -0.5% | 1 | -20 | 3.3
Cn1c(N)c(C(=O)CSc2nnc(C3CC3)n2Cc2ccccc2)c(=O)n(C)c1=O | 1 | -0.7 | -0.5% | -11 | -4 | -4.2
Cn1c(SCC(=O)c2ccccc2)nnc1-c1cccs1 | 18 | -0.1 | -1.1% | -1 | -19 | -4.1
Cc1[nH]c2ccccc2c1C(=O)COC(=O)C1CC(=O)N(Cc2ccco2)C1 (stereo not given) | -8 | 2.7 | 3.2% | -8 | -19 | -2.2
CC1CC(C)CN(CCCNC(=O)c2ccc3c(SCC(=O)O)c4c(nc3c2)CCC4)C1 (stereo not given) | -1 | -0.2 | 0.2% | 4 | -14 | -2.1
O=C(NC(=S)Nn1cnc2c(cnn2-c2ccccc2)c1=O)c1ccc(Cl)cc1 | -4 | -0.4 | 1.6% | -10 | -10 | -8.4
CC1(C)C(=O)OC(c2cccs2)C(C)(C)C1=O (stereo not given) | 1 | -0.2 | -0.3% | 4 | 2 | -0.8
CCc1ccccc1NC(=O)CSc1nc2n[nH]c(C)c2c(=N)n1-c1ccc(OC)cc1 | 23 | 0.7 | 0.0% | -74* | -18 | -2.6
CCOc1cc(C#N)c(NC(=O)c2ccco2)cc1OCC | -6 | -1.1 | 12% | 7 | 2 | -0.2
CCCC1=Nc2cc(C(=O)NCc3ccccc3)ccc2Sc2ccccc21 | -10 | 0.6 | 0.6% | . | . | .
CCN(c1ccccc1)S(=O)(=O)c1nnc(NC(=O)CC(C)C)s1 | 10 | -0.9 | -0.4% | -17 | -4 | -4.3
CN(CC1COc2ccccc2O1)C(=O)CSc1ncnc2sccc12 (stereo not given) | 39 | 3.7 | 1.3% | 10 | -3 | 3.9
S=C(NCCCn1ccnc1)Nc1cccc(Cl)c1 | 5 | -0.3 | 0.9% | -17 | -12 | -0.2
O=C(O)c1ccc(NCc2ccncc2)cc1 | -8 | 2.8 | 5.6%[38.3 µM] | 5 | -6 | -2.6
COc1ccc(NC(=O)CN(C)C(=O)c2oc3c(ccc4ccccc43)c2C)cc1 | 27 | 1.3 | 1.6% | -7 | -3 | -0.6
CC(C)(C)c1ccc(-n2ncc3c2CCCC3NC(=O)c2csnn2)cc1 (stereo not given) | 4 | 0.0 | 10% | 13 | 9 | 1.6
CCCSCCCNC(=O)c1ccc(C)c(NC(=O)C2=C(C)OCCS2)c1 | -13 | 0.4 | 1.8% | -7 | 5 | -0.1
CCC(NC(=O)c1cc(COc2ccc(C)nc2)on1)c1ccc(C)cc1 (stereo not given) | 19 | 10.0 | -0.2% | 6 | 11 | 0.8
N#Cc1ccccc1Cn1c(SCC(=O)Nc2ccc(F)cc2)nc2ccccc21 | 19 | 1.8 | 0.8% | . | . | .
O=C(NCCc1ccccc1Cl)C1CCN(S(=O)(=O)c2cccs2)CC1 | -1 | -0.3 | -6.2%[38.3 µM] | 2 | -9 | -1.7
Cc1ccc(C(=O)OCC(=O)c2cc(C)n(CC3CCCO3)c2C)cc1 (stereo not given) | -10 | 0.9 | 2.7% | -16 | 5 | 4.7
CCOC(=O)c1ccc(Oc2nc(NC)nc(OC)n2)cc1 | -24 | 2.2 | 0.0% | -4 | -17 | -3.7
Cc1ccc2[nH]c(=O)c(CN(CC3CCCO3)C(=S)NCc3ccco3)cc2c1 (stereo not given) | 1 | 0.1 | 4.4% | -10 | 1 | 2.3

Gathered by group, those above with fluorine
SMILES | TRPML1 inh | TRPML1 ag | PINK1 expr mod | Six1-Eya2 blk | D2 potentiator | D2 agonist
Cc1sc2nc(COC(=O)c3c(F)cccc3F)[nH]c(=O)c2c1C | 23 | 0.7 | -1.3% | 19 | -22 | -4.3
N#Cc1ccccc1Cn1c(SCC(=O)Nc2ccc(F)cc2)nc2ccccc21 | 19 | 1.8 | 0.8% | . | . | .

Further compounds follow:
SMILES | TRPML1 inh | TRPML1 ag | PINK1 expr mod | Six1-Eya2 blk | D2 potentiator | D2 agonist
Cc1cc2c(c(=O)n1Cc1cccnc1)C(c1ccc(F)cc1)C(C#N)=C(N)O2 (stereo not given) | -18 | 2.6 | -0.2% | -3 | -12 | -1.7
C[C@@H]1CN([C@H](C)CO)C(=O)CCCn2nncc2CO[C@@H]1CN(C)C(=O)c1ccccc1 | 8 | 0.3 | 1.7% | 6 | 4 | -2.7
CCOc1ccc(C2C(C(=O)Nc3ccc(OC)cc3)=C(C)Nc3nc(SCc4ccc(Cl)cc4)nn32)cc1 (stereo not given) | 4 | -0.8 | 3.8% | . | . | .
CC(=O)c1sc(NC(=O)c2cnc(Cl)c(Cl)c2)nc1C | 4 | -0.3 | 3.7% | -3 | -7 | 0.3
Cc1ccc2oc(C(=O)N3CCN(Cc4ncccc4C)CC3)c(C)c2c1 | -9 | 1.6 | ? | -3 | -13 | -4.9
COc1cccc(CNC(=O)C2CCN(S(=O)(=O)N3CCCCC3)CC2)c1 | 7 | -0.4 | 10%[38.3 µM] | -2 | -7 | -0.4
CC(C)(C)NC(=O)NC(=O)CN1CCN(c2ccc(O)cc2)CC1 | 38 | 1.2 | 1.6% | 2 | 6 | 6.6
Cc1ccc(N(C(=O)CS(=O)CC(=O)Nc2ccc(F)cc2)C(C(=O)NC2CCCCC2)c2ccco2)cc1 (stereo not given) | 14 | -0.2 | 7.2% | -2 | -2 | -2.3
COCCOCC(O)CN1CCN(c2ccccc2)CC1 (stereo not given) | -4 | 2.3 | -1.9% | 7 | -24 | 9.2
O=C(C1CC1)N1CCC(c2nc(-c3ccc(S(=O)(=O)N4CCCC4)cc3)no2)CC1 | -10 | 2.7 | -1.1%[38.3 µM] | -1 | 4 | -1.6
OCCC1CN(Cc2ccc3c(c2)CCO3)CCN1C1CCCC1 (stereo not given) | -15 | 0.2 | -0.5% | 2 | -31 | -3.4
Cc1cc(C)c(NC(=O)C2CCN(S(=O)(=O)c3c(C)noc3/C=C/c3ccccc3F)CC2)c(C)c1 | 12 | 0.7 | -0.6% | . | . | .
COc1ccc(-c2nc3ncccn3c2Br)cc1 | -6 | 1.3 | -0.6% | -2 | -9 | 2.4
CCC(C)n1c(=O)c2sccc2n2c(CCCC(=O)Nc3ccc(F)cc3)nnc12 (stereo not given) | 17 | 1.4 | -0.6% | . | . | .
CC(NC(=O)C1CCCN(S(=O)(=O)c2cnc[nH]2)C1)c1ccccc1 (stereo not given) | -11 | -0.3 | 4.1% | 5 | -10 | -4.9
COc1ccc(OCCOc2ccccc2[N+](=O)[O-])cc1 | 7 | -0.7 | -0.4% | 0 | -14 | -2.6
Cc1ccc(S(=O)(=O)N2CCOCC2)cc1NC(=O)COC(=O)C1=COCCO1 | 1 | 0.6 | -2.4% | 7 | -68 | -1.6
Cc1csc(=O)n1CC(=O)OCC(=O)Nc1cc([N+](=O)[O-])ccc1Cl | 17 | -0.3 | 4.2% | -1 | 7 | 2.3
CCOC(=O)c1nn(-c2ccccc2)cc1O | 11 | 2.4 | -1.3% | 1 | -31 | -0.5
CCC/C(=C1/c2ccccc2C(=O)N1c1ccccc1)c1ccc2[nH]ccc2c1 | 28 | 0.9 | 24% | 15 | 2 | -0.1
O=C(NCc1ccc(Cl)cc1Cl)c1cccc(N2CCCS2(=O)=O)c1 | 14 | -0.8 | 0.5% | . | . | .
O=C(Cn1cnc([N+](=O)[O-])n1)N/N=C/c1cccc2ccccc12 | 18 | 2.4 | 1.6% | 10 | -4 | 1.7
S=C1NC2(CCCCC2)N=C1c1ccccc1 | -5 | -0.7 | 9.2% | 1 | -4 | -1.4
O=C(OCn1nnc2ccccc2c1=O)c1ccc(N2CCOCC2)c([N+](=O)[O-])c1 | 13 | 0.3 | -1.4% | -2 | -11 | -2.3
CC(C)c1ccc(/C=C/C(=O)N2CCc3ccccc3C2)cc1 | -1 | 0.9 | ? | 3 | -33 | -3.0
CCOC(=O)C1CCCN(C(=O)COc2ccccc2F)C1 (stereo not given) | 24 | 1.6 | 2.4% | 11 | -8 | -0.2
CCOc1ccc(/C=C/c2nc(C#N)c(NC(C)c3ccccc3)o2)cc1 (stereo not given) | 27 | 0.5 | 11% | . | . | .
Cc1c(C(=O)N2CCC(C)CC2)cccc1[N+](=O)[O-] | -6 | -1.2 | 1.3% | -10 | -17 | -2.3
COc1ccc(C(=O)N/C(=C\c2ccc3c(c2)OCO3)C(=O)Nc2ccc(C(=O)O)cc2)cc1 | 4 | 3.7 | -0.6% | -2 | -29 | -5.8
Cc1ccc(S(=O)(=O)N(C)C)cc1NC(=O)COC(=O)CCC1CCCCC1 | 13 | 5.9 | 0.7% | 7 | -18 | -1.8
O=c1cc(CN2CC(O)Cc3ccc4ccccc4c32)nc2sccn12 (stereo not given) | 12 | -0.2 | 0.6% | -5 | -2 | -1.7

Among those listed so far, 6 contain a thiophene ring, fused or not.
SMILES | TRPML1 inh | TRPML1 ag | PINK1 expr mod | Six1-Eya2 blk | D2 potentiator | D2 agonist
Cc1sc2nc(COC(=O)c3c(F)cccc3F)[nH]c(=O)c2c1C | 23 | 0.7 | -1.3% | 19 | -22 | -4.3
Cn1c(SCC(=O)c2ccccc2)nnc1-c1cccs1 | 18 | -0.1 | -1.1% | -1 | -19 | -4.1
CC1(C)C(=O)OC(c2cccs2)C(C)(C)C1=O (stereo not given) | 1 | -0.2 | -0.3% | 4 | 2 | -0.8
CN(CC1COc2ccccc2O1)C(=O)CSc1ncnc2sccc12 (stereo not given) | 39 | 3.7 | 1.3% | 10 | -3 | 3.9
O=C(NCCc1ccccc1Cl)C1CCN(S(=O)(=O)c2cccs2)CC1 | -1 | -0.3 | -6.2%[38.3 µM] | 2 | -9 | -1.7
CCC(C)n1c(=O)c2sccc2n2c(CCCC(=O)Nc3ccc(F)cc3)nnc12 (stereo not given) | 17 | 1.4 | -0.6% | . | . | .

Source: PubChem (National Center for Advancing Translational Sciences (NCATS))
